From PubChem BioAssay
CtBP-E1A inh = CtBP/E1A binding inhibition. AlphaScreen GST-E1A/His-CtBP binding, 1536-well; stronger effect = lower value; control for the full effect not named in the record. activity change, % (no concentration beside the values). 0.49% of 340,000 active; in the data active means activity change below about -65%; inconclusive means about -30% to -65%; inactive means above about -30%; note: % is set by controls: 0 for no effect and ±100 for the full control effect; compound concentration not given in the record
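Steps: dispense buffer (Tris pH 8.0, NaCl 300 mM, TCEP 1 mM, BSA, Tween 20); add 5X protein mix (GST-E1A, His-CtBP, 125 nM each); pin 23 nL compound; 2 h at 37 °C, dark; add 5X beads (50 ug/mL); 1 h; read.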
PINK1 modulator = modulators of PINK1 expression | PINK1 immunofluorescence, high-content cytometry, 24 h | Potency, µM (series often up to 76.6 µM), for the others: at the highest dose activation (PINK1 increase), most hits filed as activators | 0.2% of 410,000 active | AID 624263; active = well fitted activation curve with a large enough effect; inconclusive = small, poorly fitted or top-dose-only effect; inactive = flat fitted curve, though single readings scatter; cell line not stated here;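 note: potency is the fitted concentration of half-maximal effect; % of control where 0% means no effect; nearly all actives have a fitted effect of over 65% in size; a mitochondrial uncoupler was the plate control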
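Compound titrations (5 concentrations, 24 h) on a stable cell line; DMSO and CCCP controls. Endpoint: fixed-cell PINK1 immunofluorescence with mitochondrial, cell and nuclear markers, scanned by microplate cytometer.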
TRPML1 ag = agonists of human TRPML1 channel. TRPML1-expressing cells, Ca2+ dye fluorescence, FDSS; host cell line not named in the record; reference of the full effect not given here. activation, % (test concentration not listed). 0.12% of 410,000 active. AID 624414; in the data active = activation above about 50%; inconclusive = about 30% to 50%; inactive = below about 30%; note: 0% is about no effect; the text of the record puts the active cut at 80%
Target sequence (Q9GZU1 whole entry, looked up): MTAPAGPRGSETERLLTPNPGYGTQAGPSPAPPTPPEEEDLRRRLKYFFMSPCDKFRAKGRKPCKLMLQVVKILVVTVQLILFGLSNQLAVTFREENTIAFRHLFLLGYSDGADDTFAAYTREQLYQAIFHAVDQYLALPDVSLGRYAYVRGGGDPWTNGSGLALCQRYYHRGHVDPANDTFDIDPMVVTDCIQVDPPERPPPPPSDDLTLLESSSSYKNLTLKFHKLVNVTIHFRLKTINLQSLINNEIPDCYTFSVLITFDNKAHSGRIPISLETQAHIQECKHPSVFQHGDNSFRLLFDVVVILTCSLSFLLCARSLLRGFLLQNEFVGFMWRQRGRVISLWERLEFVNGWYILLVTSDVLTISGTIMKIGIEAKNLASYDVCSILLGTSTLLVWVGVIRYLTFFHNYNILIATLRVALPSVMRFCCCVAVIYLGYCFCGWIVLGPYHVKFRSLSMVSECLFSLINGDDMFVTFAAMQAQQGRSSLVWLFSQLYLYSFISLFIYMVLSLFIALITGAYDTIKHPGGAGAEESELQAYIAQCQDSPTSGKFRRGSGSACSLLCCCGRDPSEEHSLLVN
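Tetracycline-induced TRPML1-DL cells are seeded and incubated overnight before loading with a no-wash Ca2+ dye and quencher. Agonist activity is taken from the 110 s fluorescence read following compound pin-transfer on an FDSS, before EC80 54-4 challenge.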
Six1-Eya2 inh = inhibitors of human Six1/Eya2 interaction | Q15475+O00167 | AlphaScreen GST-Six1/His-Eya2 binding, biochemical; stronger effect = lower value; control for the full effect not named in the record | activity change, % (no concentration beside the values) | 0.56% of 360,000 active | AID 651725; in the data active = activity change below about -65%; inconclusive = about -30% to -65%; inactive = above about -30%; note: % is set by controls: 0 for no effect and ±100 for the full control effect; compound concentration not given in the record
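AlphaScreen with GST-Six1 and His-Eya2 (5X mix: 250 nM and 500 nM), glutathione donor and nickel acceptor beads; buffer 50 mM Tris pH 8.0, 300 mM NaCl, 1 mM TCEP; 1 h at 37 C in the dark.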
D2 ag = human D2 receptor agonism in beta-arrestin assay; DiscoveRx PathHunter D2 beta-arrestin, luminescence, 90 min; 100% = 57 uM dopamine signal; activation, % (concentration not given with the values); 0.084% of 360,000 active; P14416; in the data active = activation above about 40%; inconclusive = about 15% to 40%; inactive = below about 15%; note: compound concentration not given in the record; the text of the record calls up to 30% inactive
Target sequence (P14416 whole entry, looked up): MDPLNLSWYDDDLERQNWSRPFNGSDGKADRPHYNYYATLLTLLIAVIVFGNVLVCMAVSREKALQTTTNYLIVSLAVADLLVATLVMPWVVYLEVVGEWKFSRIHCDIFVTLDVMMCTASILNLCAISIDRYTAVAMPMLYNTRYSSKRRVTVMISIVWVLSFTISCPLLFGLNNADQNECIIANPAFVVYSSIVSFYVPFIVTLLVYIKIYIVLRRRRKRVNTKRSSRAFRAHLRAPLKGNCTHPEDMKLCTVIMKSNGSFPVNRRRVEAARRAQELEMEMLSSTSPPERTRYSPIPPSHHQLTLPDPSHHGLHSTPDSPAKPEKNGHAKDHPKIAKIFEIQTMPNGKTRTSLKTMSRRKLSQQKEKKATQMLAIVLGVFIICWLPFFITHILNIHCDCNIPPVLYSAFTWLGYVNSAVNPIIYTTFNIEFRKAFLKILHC
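DiscoveRx PathHunter D2 beta-arrestin cells (2,100/well) attached overnight, then compound-stimulated 90 min at 37 C in HBSS/10 mM HEPES/0.1% Tween-20 buffer; beta-galactosidase complementation read by luminescence after 1 h at ambient temperature. Dopamine 57 uM final (EC100) as control.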
TRPML1 blocker = inhibitors of human TRPML1 channel; activity change, negative = inhibition, % (concentration not given with the values); Q9GZU1; 0.02% of 390,000 active; TRPML1-inducible cells, Ca2+ dye fluorescence, FDSS; stronger effect = lower value; inhibition of EC80 agonist-evoked calcium signal; in the data active means activity change below about -50%; inconclusive means about -30% to -50%; inactive means above about -30%;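 note: stimulus is agonist 54-4 at its EC80 concentration; % is set by controls: 0 for no effect and ±100 for the full control effect; compound concentration not given in the record; the text of the record puts the active cut at -80%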
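Calcium fluorescence in TRPML1-DL cells induced overnight with Tet: a 110 s read after compound pin addition, then a 110 s antagonist read after challenge with 54-4 at 4 uM final (EC80).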
An asterisk follows results filed as active; ? = inconclusive; / = not tested or not shown; [ ] = remark or other dose. An unsorted share of the library. About 1% of those tested had a hit in this group.

SMILES | CtBP-E1A inh | PINK1 modulator | TRPML1 ag | Six1-Eya2 inh | D2 ag | TRPML1 blocker
CC1=C(C(=O)OC(C)C)C(c2cccs2)NC(=S)N1 (stereo unspecified) | -10.0 | -1.7% | 0.4 | -7.4 | 1.2 | 10.0
COc1ccccc1NC(=O)CSc1nnc(CNC(=O)c2ccccc2F)o1 | 0.4 | -0.3% | -0.7 | -0.8 | 0.8 | 9.6
Cc1nc(NC(=O)c2ccccc2)sc1Cc1ccc2c(c1)OCO2 | -8.9 | 2.5% | 1.0 | -13.4 | 1.6 | 11.4
O=C(Nc1ccccc1N1CCCC1)C1CCN(S(=O)(=O)c2ccccc2C(F)(F)F)CC1 | -9.1 | 1.8% | 1.3 | -20.9 | -1.3 | -9.2
Cn1cnc2cc(NC(=O)c3ccco3)ccc21 | 6.3 | 0.4%[38.3 µM] | 0.5 | 4.7 | 2.6 | -4.5
CC1(C(=O)O)CCCN(C(=O)c2cccnc2Oc2ccccc2)C1 (stereo unspecified) | 6.7 | 0.9% | -0.4 | 6.1 | -3.1 | /
O=C(N/N=C/C=C/c1ccccc1)c1cccnc1 | 2.5 | 0.7% | 0.2 | 7.4 | 0.6 | -10.8
CCCCn1c(N)c(N(CC(C)C)C(=O)CN(C)S(=O)(=O)c2ccc(F)cc2)c(=O)[nH]c1=O | 1.8 | 2.8% | -1.1 | 1.2 | -1.3 | -5.4
COc1ccc(CNC(=O)C(c2ccco2)N(Cc2ccccc2)C(=O)Cc2cccs2)cc1 (stereo unspecified) | -2.5 | -1.0% | -0.4 | -3.9 | -3.3 | 8.7
COc1ccc(N(C)S(=O)(=O)c2cccc(C(=O)Nc3nnc(C4CC4)s3)c2)cc1 | -4.4 | 0.9% | 0.9 | -1.9 | -2.7 | 3.4
O=C(N[C@H]1C/C=C\C(c2cccc(F)c2)N(Cc2ccccc2)C(=O)C1)OCC1c2ccccc2-c2ccccc21 (stereo partly specified) | -8.0 | 2.7% | -0.4 | -5.6 | -1.9 | -2.0
COCCNC(=O)C1(C)CCCN(C(=O)c2ccccc2OC(F)(F)F)C1 (stereo unspecified) | 7.2 | 1.3% | -0.3 | 10.9 | -2.7 | /
COc1ccc(Nc2nc3c(S(=O)(=O)c4ccccc4)nnn3c3ccc(Cl)cc23)cc1 | / | 1.5% | 1.7 | / | / | -9.5
CCOc1ncccc1C(=O)OCc1ccc([N+](=O)[O-])cc1 | 0.0 | -0.6% | 1.7 | 0.1 | -13.7 | 7.5
Cc1ccccc1OCCc1c(C)[nH]c(=S)[nH]c1=O | 0.8 | 3.0% | -0.4 | 6.3 | -4.8 | 5.9
CN(C)c1ccnc2sc(C(=O)NCc3ccccc3)c(N)c12 | -5.7 | -0.2%[38.3 µM] | -0.1 | -7.1 | -1.4 | 30.9
Cc1cc(C)n(CC(O)COc2c(C)cccc2C)n1 (stereo unspecified) | / | 2.0% | 0.7 | 7.0 | -4.1 | 6.5
COc1cccc(NC(=O)CN(C)CC(=O)NCC(=O)Nc2ccc(F)cc2)c1 | / | 1.9% | 0.1 | 3.3 | 8.9 | -8.5
CCN(CC)c1ccc(N2C(=NC(=O)C3CC3)SC3CS(=O)(=O)CC32)cc1 (stereo unspecified) | -7.5 | -1.0% | -0.7 | 8.3 | 1.2 | 8.9
C[C@H](CO)N1C[C@H](C)[C@@H](CN(C)S(=O)(=O)c2cccs2)Oc2ccc(NC(=O)C3CC3)cc2C1=O | 5.0 | 3.8% | -0.9 | 0.1 | 2.4 | -4.2
Cn1ncc(Cl)c1C(=O)NCc1cc(C(C)(C)C)n[nH]1 | 0.3 | -2.2% | -0.3 | 0.6 | 4.4 | -7.4
C/C(CC(=O)NCc1ccco1)=N\NC(=O)Cc1ccc(-c2ccccc2)cc1 | 0.8 | 9.9% | -1.4 | -3.6 | -1.5 | 11.4
COc1ccc(CNC(=O)c2ccc(NS(=O)(=O)c3c(C)noc3C)cc2)cc1 | 3.5 | 0.8% | -0.9 | 0.0 | -5.0 | -12.8
O=C(Nc1ccn(CCCNCc2ccc3c(c2)OCO3)c(=O)n1)OCc1ccccc1 | -2.6 | -0.8% | -0.1 | 2.2 | -0.9 | 7.8
COc1ccc(C(O)(CCN2CCCCC2)C2CCCCC2)cc1 (stereo unspecified) | 3.3 | -0.2% | 0.5 | 4.2 | -3.1 | 19.4
O=C(O)c1cc2n(n1)C(C(F)(F)F)CC(c1ccco1)N2 (stereo unspecified) | 3.2 | 1.5% | -0.5 | 2.1 | -1.8 | ?
Cc1nn(C(C)(C)C)c(OC(=O)c2ccco2)c1Sc1ccccc1 | -9.9 | -2.0% | 6.7 | 1.7 | -1.3 | -6.5
Cc1cc(N)n(-c2nc3ccccc3s2)n1 | / | 2.5% | 0.6 | -3.1 | 4.5 | -10.1
COc1ccc(Oc2nnc(-c3ccc(C)cc3)c3ccccc23)cc1 | 5.7 | 15.0%[38.3 µM] | -0.3 | 3.2 | -2.6 | -3.6
Cc1ccc(OCC(=O)NNC(=O)C2CCN(c3ncnc4sc(C)c(C)c34)CC2)cc1 | -16.0 | 0.0% | 2.5 | -13.9 | 2.2 | -4.0

Entries from the list above that contain a Cl atom (two):
SMILES | CtBP-E1A inh | PINK1 modulator | TRPML1 ag | Six1-Eya2 inh | D2 ag | TRPML1 blocker
COc1ccc(Nc2nc3c(S(=O)(=O)c4ccccc4)nnn3c3ccc(Cl)cc23)cc1 | / | 1.5% | 1.7 | / | / | -9.5
Cn1ncc(Cl)c1C(=O)NCc1cc(C(C)(C)C)n[nH]1 | 0.3 | -2.2% | -0.3 | 0.6 | 4.4 | -7.4

New compounds follow
SMILES | CtBP-E1A inh | PINK1 modulator | TRPML1 ag | Six1-Eya2 inh | D2 ag | TRPML1 blocker
Cc1nc(NC(=O)/C=C/c2ccccc2)sc1C(=O)Nc1ccc(Cl)cc1 | 2.5 | -0.5% | 0.6 | 3.7 | 8.0 | 22.5
CCOC(=O)/C(C#N)=N/Nc1c(C)n(C)n(-c2ccccc2)c1=O | -7.0 | -2.6% | -0.1 | -13.4 | 0.5 | 3.5
O=C1CCCC(=NNC(=O)c2cc3ccccc3cc2O)C1 | 1.0 | 2.7% | 0.7 | -15.6 | -4.4 | 0.3
O=C(c1cccc(Cl)c1)N(Cc1cccc(F)c1)C1CCS(=O)(=O)C1 (stereo unspecified) | / | 1.4% | -1.0 | / | / | 9.5
CCc1c(C(=O)NC(C)C2CCCO2)csc1C (stereo unspecified) | 3.5 | -0.6% | 0.3 | 5.7 | -0.5 | -0.4
O=C(/C=C/c1cc([N+](=O)[O-])ccc1OC(F)F)NCc1ccc(Cl)cc1 | -12.2 | -0.9% | 2.3 | 6.3 | -0.4 | 24.7
COC(=O)c1cc2oc3ccccc3c2n1Cc1nc(-c2ccc(OC)cc2)oc1C | / | 1.7% | -0.3 | / | / | 0.8
COc1ccccc1NS(=O)(=O)c1cccc(C(=O)N2CCN(C(=O)c3ccco3)CC2)c1 | 0.9 | 1.6% | 1.6 | 1.6 | 11.0 | 0.4
Cc1cccc(Nc2nc(-c3ccc(F)c(C)c3)cs2)n1 | 2.7 | 16.6% | 1.8 | -7.4 | 1.8 | 16.9
COc1ccc(-n2ccn(CC(=O)Nc3ccccc3C(F)(F)F)c(=O)c2=O)cc1OC | / | 1.8% | 0.2 | / | / | -12.8
CCC(=O)NNC(=O)CSc1nnc(-c2ccccc2)c(-c2ccccc2)n1 | -3.7 | 0.8% | -0.2 | -9.2 | -4.7 | 7.7
CC1C=CC=CC=CC=CC=CC=CC=CC(OC2OC(C)C(O)C(N)C2O)CC2OC(O)(CC(O)CC(O)C(O)CCC(O)CC(O)CC(=O)OC(C)C(C)C1O)CC(O)C2C(=O)O (stereo unspecified) | 0.0 | 4.4% | 0.9 | -75.0* | -4.3 | -3.6
COc1ccc(-c2csc(NC(=O)CN3C(=O)CCC3=O)n2)cc1OC | 1.6 | -1.3% | 0.2 | 3.7 | -1.5 | 10.2
COc1ccc(Cn2c(NCC(C)C)nc3c2c(=O)n(C)c(=O)n3C)cc1 | / | 1.0% | -0.8 | / | / | -9.7
CN(CC(=O)Nc1cccc(F)c1)C(=O)CC1CCCCC1 | 6.3 | 0.6% | -0.4 | -18.6 | -4.6 | 4.4
COc1ccc(C(O)c2nc(-c3ccc(C)c(C)c3)cs2)cc1 (stereo unspecified) | -14.8 | 1.6% | 0.2 | 6.4 | 5.1 | /
O=C(Nc1ccc(S(=O)(=O)N2CCCCC2)cc1)c1ccc(F)cc1 | 2.3 | 0.2% | 0.5 | 1.5 | -3.3 | 59.6
COc1ccc(-c2csc(N3CCN(C(=O)c4ccccc4)CC3)n2)cc1 | -24.1 | 34.2%[38.3 µM] | -0.8 | -16.4 | -2.8 | 8.1
CCOC(=O)c1ccc(NC(=O)NC2CC3CCC(C2)N3Cc2nnnn2Cc2ccco2)cc1 (stereo unspecified) | -2.6 | 0.4% | 0.7 | -9.8 | -1.3 | 6.3
COc1cccc(/C=C2\SC(=S)N(CCC(=O)N3CCCCC3CCO)C2=O)c1 (stereo unspecified) | -26.4 | 1.2% | -0.4 | -4.7 | 3.2 | 3.4
Cc1oc(S(=O)(=O)N2CCCC2)cc1C(=O)Nc1ccccc1 | 4.8 | -0.1% | 2.3 | -2.7 | -1.1 | 10.2
Cc1cc(C(=O)OC(C)C(=O)NC2CCCCC2C)c(C)o1 (stereo unspecified) | -20.7 | -1.7% | -0.2 | 0.5 | -1.5 | 26.2
Cc1ccnc(SCC(=O)O)n1 | 13.3 | -2.3%[38.3 µM] | 0.7 | 6.9 | 1.9 | -0.3
Cc1sc(NC(=S)NC(=O)c2cccs2)nc1-c1ccc(CC(C)C)cc1 | 0.4 | 14.8%[38.3 µM] | 0.2 | -1.2 | -2.2 | -4.1
COc1ccc(Cl)cc1S(=O)(=O)N1CCC(C(=O)NC2CC2)CC1 | 4.4 | 3.5% | -0.4 | 1.3 | -3.3 | -9.3
CC1CCCN(C(=S)Nc2ccc(S(=O)(=O)N3CCCCC3)cc2)C1 (stereo unspecified) | 0.0 | -0.4% | 1.3 | -4.3 | 1.1 | -2.5
CC(OC(=O)c1ccc2ncsc2c1)C(=O)NC1CCCCC1C (stereo unspecified) | 0.0 | 4.5% | 0.0 | 0.0 | -1.6 | -10.1
Cc1nn(CC#N)c(=O)n1-c1cccc(F)c1 | 1.1 | -1.7% | 0.9 | -2.4 | -3.3 | 5.5
O=C(c1ccc2c(c1)C(=O)N(c1ccc(Cl)cc1)C2=O)N1CCN(c2ccccn2)CC1 | 1.1 | 2.4% | 0.0 | 6.5 | 0.2 | -7.9
Cc1ccccc1CN(c1ccc(C(=O)Nc2cccnc2)cc1)S(C)(=O)=O | 2.6 | / | 0.0 | 3.1 | -4.1 | 7.0
CCN1CCCC(OC(=O)c2cc(-c3ccc(C)cc3)nc3ccccc23)C1 (stereo unspecified) | -7.7 | -0.4% | 0.0 | 1.1 | -5.3 | 36.5
CSc1ccc(/C=C/C(=O)OCC(=O)NC(C)C)cc1 | -5.3 | -0.8% | -0.8 | -3.0 | -3.2 | -19.4
